Compound activity (PubChem)
HIV_Env_fusion = inhibitors of HIV-1 Env-driven cell-cell fusion, primary screen, HeLa-JRFL effector, CEM21 target cells, luciferase | inhibition, % at 12.3 µM | actives 1.1% (n = 360,000) | AID 651610, 2012;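 active = mean replicate inhibition score of at least 50 and every replicate individually at or above 50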;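 also: 0% = plate neutral controls and 100% = maraviroc near 300 nM; one replicate is shown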
UUG_fidelity = modulators of yeast start codon fidelity, primary screen, whole organism, S. cerevisiae, single point, plate reader | activity score, % at 18.7 µM | S. cerevisiae UUG-firefly luciferase reporter, luminescence/redox ratio | actives 0.13% (n = 350,000);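 active = replicate mean at a twofold rise or more, about +100% in these data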;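 also: firefly luciferase made from a UUG start codon reports start codon fidelity; reporter light over untreated wells divided by growth signal over untreated wells; some hits fall short of that in this replicate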
* marks the source's active call; other numbers are inactive results; [ ] = remark or other dose. These rows are one share of the data (hit frequency here may not be typical).

Start of the listing, in advance, three compounds:
SMILES HIV_Env_fusion UUG_fidelity
COCC(=O)N(C)C[C@H]1Oc2cc(C#CCC3CCCC3)ccc2S(=O)(=O)N([C@@H](C)CO)C[C@H]1C 3.0[16.7_µM] 21.8
COc1ccc(NC(=O)Nc2ccc3c(c2)C(=O)N([C@H](C)CO)C[C@H](C)[C@H](CN(C)C(=O)Nc2ccccc2)OCCCC[C@@H](C)O3)cc1 -1.3[16.7_µM] -9.3
Cc1ccc(S(=O)(=O)Nc2ccc3c(c2)C(=O)N([C@H](C)CO)C[C@@H](C)[C@H](CN(C)CC2CC2)OCCCC[C@@H](C)O3)cc1 -3.7[16.7_µM] 0.3

Main list, repeating the preview:
SMILES HIV_Env_fusion UUG_fidelity
COCC(=O)N(C)C[C@H]1Oc2cc(C#CCC3CCCC3)ccc2S(=O)(=O)N([C@@H](C)CO)C[C@H]1C 3.0[16.7_µM] 21.8
COc1ccc(NC(=O)Nc2ccc3c(c2)C(=O)N([C@H](C)CO)C[C@H](C)[C@H](CN(C)C(=O)Nc2ccccc2)OCCCC[C@@H](C)O3)cc1 -1.3[16.7_µM] -9.3
Cc1ccc(S(=O)(=O)Nc2ccc3c(c2)C(=O)N([C@H](C)CO)C[C@@H](C)[C@H](CN(C)CC2CC2)OCCCC[C@@H](C)O3)cc1 -3.7[16.7_µM] 0.3
C[C@H]1CN([C@@H](C)CO)C(=O)c2cc(NS(=O)(=O)c3cccs3)ccc2O[C@H]1CN(C)S(=O)(=O)c1ccccc1 21.3[16.7_µM] 12.8
C[C@@H]1CN([C@H](C)CO)C(=O)c2cc(C#CC3CC3)cnc2O[C@H]1CN(C)S(=O)(=O)c1cccc(F)c1 12.9[16.7_µM] 38.8
C[C@@H]1CN([C@H](C)CO)C(=O)c2cc(NS(=O)(=O)c3cn(C)cn3)ccc2O[C@H]1CN(C)C(=O)Nc1ccc(C(F)(F)F)cc1 7.7[16.7_µM] -6.2
CNC[C@H]1Oc2ccc(NC(=O)CCCN(C)C)cc2C(=O)N([C@H](C)CO)C[C@H]1C -1.4[16.7_µM] 0.1
C/C=C/c1ccc2c(c1)O[C@@H](CN(C)C(=O)c1ccncc1)[C@H](C)CN([C@H](C)CO)S2(=O)=O -14.6[16.7_µM] 0.2
O=C(C[C@H]1C[C@@H]2c3cc(NC(=O)CC4CC4)ccc3O[C@@H]2[C@@H](CO)O1)NCc1ccncc1 1.2[16.7_µM] 5.1
COc1ccccc1-c1cnc2c(c1)C(=O)N([C@@H](C)CO)C[C@H](C)[C@@H](CN(C)Cc1ccc(C(=O)O)cc1)O2 -3.3[16.7_µM] 5.8
Cc1ccc(S(=O)(=O)Nc2cccc3c2O[C@@H](CN(C)S(=O)(=O)c2cn(C)cn2)[C@H](C)CN([C@H](C)CO)C3=O)cc1 -5.1[16.7_µM] 4.0
O=C(C[C@H]1C[C@H]2c3cc(NS(=O)(=O)c4ccc(F)cc4)ccc3O[C@H]2[C@H](CO)O1)N1CCCCC1 -3.3[16.7_µM] 10.4
CCC(=O)N(C)C[C@H]1Oc2cc(-c3ccncc3)ccc2S(=O)(=O)N([C@H](C)CO)C[C@@H]1C -8.5[16.7_µM] -2.9
CCC(=O)N(C)C[C@H]1Oc2cc(C#CCN(C)C)ccc2S(=O)(=O)N([C@@H](C)CO)C[C@@H]1C -2.4[16.7_µM] 6.7
C[C@H](CO)N1C[C@H](C)[C@@H](CN(C)C(=O)C2CCC2)Oc2ncc(C#Cc3ccccc3F)cc2C1=O -22.3[16.7_µM] 10.6
C[C@H]1CN([C@@H](C)CO)C(=O)Cc2cc(NC(=O)CCC(F)(F)F)ccc2O[C@@H]1CN(C)S(C)(=O)=O 21.3[16.7_µM] -19.3
C[C@H]1CN([C@@H](C)CO)C(=O)c2cc(NC(=O)Nc3ccc(F)cc3)ccc2O[C@H]1CN(C)S(C)(=O)=O -7.6[16.7_µM] 18.4
COc1ccc(CN(C)C[C@H]2OCCCC[C@@H](C)Oc3ccc(NS(=O)(=O)c4ccc(Cl)cc4)cc3C(=O)N([C@@H](C)CO)C[C@@H]2C)cc1 -0.8[16.7_µM] 15.0
C[C@H](CO)N1C[C@H](C)[C@H](CN(C)Cc2ccc(Oc3ccccc3)cc2)Oc2ccc(NS(C)(=O)=O)cc2C1=O -5.0[16.7_µM] 14.5
CN(C)C(=O)C[C@H]1C[C@@H]2c3cc(NC(=O)C4CCC4)ccc3O[C@@H]2[C@@H](CO)O1 6.2[16.7_µM] -12.1
C[C@@H]1CCCCO[C@H](CN(C)S(=O)(=O)c2cn(C)cn2)[C@H](C)CN([C@H](C)CO)C(=O)c2cc(NS(=O)(=O)c3ccc(Cl)cc3)ccc2O1 5.3[16.7_µM] 11.8
CNC[C@H]1OCCCC[C@H](C)Oc2ccc(N(C)C)cc2C(=O)N([C@@H](C)CO)C[C@@H]1C -6.1[16.7_µM] -24.5
Cc1ccccc1S(=O)(=O)N1[C@@H](C#N)[C@H](c2ccc(-c3ccccc3)cc2)[C@@H]1CO 17.1[16.7_µM] -3.7
C[C@@H]1CN([C@H](C)CO)C(=O)Cc2cc(NC(=O)Nc3ccccc3)ccc2O[C@H]1CN(C)C(=O)Nc1ccc(C(F)(F)F)cc1 -15.6[16.7_µM] 20.7
Cc1ccc(S(=O)(=O)N[C@H]2C=C[C@H](CC(=O)NCCc3ccncc3)O[C@H]2CO)cc1 -7.8[16.7_µM] -14.3
O=C(C[C@@H]1C[C@@H]2c3cc(NS(=O)(=O)c4ccc(F)cc4)ccc3O[C@@H]2[C@H](CO)O1)NCC1CC1 -14.5[16.7_µM] -14.6
COc1cccc(NC(=O)Nc2ccc3c(c2)OC[C@H](C)NC[C@@H](C)[C@@H](OC)CN(C)C3=O)c1 -13.8[16.7_µM] 7.1
O=C(C[C@@H]1CC[C@H](NS(=O)(=O)c2ccc(F)cc2)[C@H](CO)O1)NC1CCCCC1 0.9[16.7_µM] -21.2
O=C(CN1CCOCC1)N[C@H]1CC[C@@H](CCNC(=O)C2CCCC2)O[C@H]1CO 13.3[16.7_µM] -1.5
CO[C@H]1CN(C)C(=O)c2cc(NS(=O)(=O)c3ccc(-c4ccccc4)cc3)ccc2OC[C@H](C)NC[C@@H]1C 10.6[16.7_µM] 8.8
COc1ccc(NC(=O)Nc2ccc3c(c2)C(=O)N([C@@H](C)CO)C[C@H](C)[C@@H](CN(C)C(=O)NC2CCCCC2)O3)cc1 0.3[16.7_µM] 1.1
C[C@@H]1CN([C@H](C)CO)C(=O)c2cc(NC(=O)CCCN(C)C)ccc2O[C@@H]1CN(C)CC1CCCCC1 3.8[16.7_µM] -5.0
C[C@@H]1CCCCO[C@@H](CN(C)C(=O)C2CCCCC2)[C@H](C)CN([C@@H](C)CO)C(=O)c2cc(NS(=O)(=O)c3cn(C)cn3)ccc2O1 -1.1[16.7_µM] -2.6
O=C(C[C@@H]1C[C@@H]2c3cc(NC(=O)NC4CCCC4)ccc3O[C@@H]2[C@H](CO)O1)NCCc1ccccc1 2.6[16.7_µM] -20.9
C[C@@H]1CN([C@H](C)CO)C(=O)c2cc(NS(=O)(=O)c3ccccc3)ccc2O[C@@H]1CN(C)S(=O)(=O)c1cn(C)cn1 -10.6[16.7_µM] -1.4
C[C@@H]1CCCCO[C@@H](CN(C)S(C)(=O)=O)[C@H](C)CN([C@H](C)CO)C(=O)c2cc(NC(=O)Nc3ccc4c(c3)OCO4)ccc2O1 -3.5[16.7_µM] -5.3
C[C@@H]1CN([C@@H](C)CO)C(=O)c2cccc(NS(=O)(=O)c3ccc(F)cc3)c2O[C@@H]1CN(C)S(=O)(=O)c1ccc(Cl)cc1 8.7[16.7_µM] 0.3
C[C@H](CO)N1C[C@H](C)[C@@H](CN(C)Cc2ccc(C(=O)O)cc2)Oc2ccc(NC(=O)Nc3ccc(C(F)(F)F)cc3)cc2CC1=O 26.6[16.7_µM] -2.2
C[C@@H]1CCCCO[C@@H](CN(C)C(=O)NC2CCCCC2)[C@@H](C)CN([C@@H](C)CO)C(=O)c2cc(N(C)C)ccc2O1 -11.9[16.7_µM] 19.9
CNC[C@H]1Oc2ccc(NC(=O)Nc3ccc(C(F)(F)F)cc3)cc2C(=O)N([C@H](C)CO)C[C@H]1C 4.2[16.7_µM] -14.6

Quoted at random: 2 records from the list
SMILES HIV_Env_fusion UUG_fidelity
C[C@@H]1CCCCO[C@@H](CN(C)C(=O)NC2CCCCC2)[C@@H](C)CN([C@@H](C)CO)C(=O)c2cc(N(C)C)ccc2O1 -11.9[16.7_µM] 19.9
O=C(C[C@@H]1C[C@@H]2c3cc(NS(=O)(=O)c4ccc(F)cc4)ccc3O[C@@H]2[C@H](CO)O1)NCC1CC1 -14.5[16.7_µM] -14.6

(continued)
SMILES HIV_Env_fusion UUG_fidelity
COc1cccc(NC(=O)N[C@H]2C=C[C@@H](CC(=O)N3CCOCC3)O[C@H]2CO)c1 -21.6[16.7_µM] -12.7
Cc1noc(C)c1S(=O)(=O)Nc1ccc2c(c1)C(=O)N([C@@H](C)CO)C[C@H](C)[C@@H](CN(C)S(=O)(=O)c1cccs1)OCCCC[C@H](C)O2 24.2[16.7_µM] 19.3
O=C(N[C@@H]1CC[C@H](CC(=O)N2CCCCC2)O[C@@H]1CO)c1ccccn1 5.2[16.7_µM] -8.7
CS(=O)(=O)Nc1ccc2c(c1)[C@H]1C[C@@H](CC(=O)NCc3cccc(F)c3)O[C@H](CO)[C@H]1O2 -4.1[16.7_µM] -6.3
CCCN(C)C[C@H]1Oc2cc(C#CC3CCCCC3)ccc2S(=O)(=O)N([C@@H](C)CO)C[C@H]1C 8.2[16.7_µM] 6.5
Cc1ccccc1-c1cnc2c(c1)C(=O)N([C@@H](C)CO)C[C@@H](C)[C@@H](CN(C)C(=O)CN(C)C)O2 0.3[16.7_µM] -2.5
C[C@@H]1CN([C@@H](C)CO)C(=O)Cc2cc(NS(=O)(=O)c3cccs3)ccc2O[C@H]1CN(C)S(C)(=O)=O -7.2[16.7_µM] -4.7
COCC(=O)N(C)C[C@H]1Oc2cc(C#CCC3CCCC3)ccc2S(=O)(=O)N([C@@H](C)CO)C[C@@H]1C 2.5[16.7_µM] -1.8
COCC#Cc1ccc2c(c1)O[C@@H](CN(C)C)[C@@H](C)CN([C@@H](C)CO)S2(=O)=O -15.7[16.7_µM] 2.8
COc1ccc(S(=O)(=O)Nc2ccc3c(c2)CC(=O)N([C@H](C)CO)C[C@H](C)[C@@H](CN(C)S(=O)(=O)c2cn(C)cn2)O3)cc1 6.3[16.7_µM] 2.8
C[C@H]1CN([C@@H](C)CO)S(=O)(=O)c2ccc(C#CC(C)(C)O)cc2O[C@@H]1CN(C)Cc1ccc(-c2ccccc2)cc1 45.7[16.7_µM] -8.8
Cc1noc(C)c1S(=O)(=O)Nc1ccc2c(c1)C(=O)N([C@H](C)CO)C[C@@H](C)[C@@H](CN(C)C(=O)NC(C)C)OCCCC[C@@H](C)O2 -23.7[16.7_µM] 0.0
C[C@@H]1CN([C@@H](C)CO)C(=O)c2cc(C3=CCCCC3)cnc2O[C@H]1CN(C)Cc1ccccc1F 10.2[16.7_µM] -7.7
COC(=O)C[C@H]1CC[C@H]2[C@H](COc3ccc(NS(=O)(=O)c4ccc(C)cc4)cc3C(=O)N2C)O1 12.6[16.7_µM] -1.2
COc1ccc(S(=O)(=O)Nc2ccc3c(c2)CC(=O)N([C@@H](C)CO)C[C@H](C)[C@@H](CN(C)CC2CC2)O3)cc1 6.7[16.7_µM] 4.6
C[C@@H](NC(=O)C[C@@H]1C[C@@H]2c3cc(NS(C)(=O)=O)ccc3O[C@@H]2[C@@H](CO)O1)c1ccccc1 -9.5[16.7_µM] 31.8
C[C@H]1CN([C@@H](C)CO)C(=O)c2cc(Br)cnc2O[C@@H]1CN(C)C(=O)NC1CCCC1 9.2[16.7_µM] 29.7
CO[C@H]1CN(C)C(=O)c2cc(NC(=O)C3CC3)ccc2OC[C@H](C)N(C(=O)Cc2ccccn2)C[C@@H]1C -6.2[16.7_µM] 12.4
Cc1noc(C)c1S(=O)(=O)Nc1ccc2c(c1)C(=O)N([C@@H](C)CO)C[C@@H](C)[C@@H](CN(C)CC1CCCCC1)OCCCC[C@H](C)O2 -26.4[16.7_µM] 73.2
CC(C)NC(=O)Nc1ccc2c(c1)C(=O)N([C@H](C)CO)C[C@H](C)[C@@H](CN(C)S(=O)(=O)c1ccc(F)cc1)OCCCC[C@@H](C)O2 -13.5[16.7_µM] -2.6
C[C@H]1CN([C@@H](C)CO)C(=O)c2cc(NC(=O)Cc3cn(C)c4ccccc34)ccc2O[C@H]1CN(C)Cc1ccccc1 17.9[16.7_µM] 3.9
COc1ccc(S(=O)(=O)N[C@@H]2CC[C@@H](CC(=O)NCCc3ccccc3)O[C@@H]2CO)cc1 4.7[16.7_µM] 9.2
Cc1noc(C)c1NC(=O)Nc1ccc2c(c1)CC(=O)N([C@@H](C)CO)C[C@@H](C)[C@H](CN(C)C(=O)Nc1c(C)noc1C)O2 -0.5[16.7_µM] -3.6
C[C@@H](NC(=O)C[C@@H]1C=C[C@@H](NC(=O)c2cccnc2)[C@H](CO)O1)c1ccccc1 -21.0[16.7_µM] -12.3
C[C@@H]1CN([C@@H](C)CO)C(=O)c2cc(C#Cc3cccnc3)cnc2O[C@H]1CN(C)Cc1ccccc1 10.2[16.7_µM] -16.0
Cc1ccc(S(=O)(=O)N[C@@H]2CC[C@@H](CC(=O)N3CCC(Cc4ccccc4)CC3)O[C@@H]2CO)cc1 28.4[16.7_µM] 13.6
CNC[C@H]1OCCCC[C@@H](C)Oc2ccc(NC(=O)CCC(F)(F)F)cc2C(=O)N([C@@H](C)CO)C[C@H]1C 3.6[16.7_µM] 11.4
CN1C(=O)c2cc(NC(=O)c3cccs3)ccc2OC[C@@H]2O[C@H](CC(=O)N3CCOCC3)CC[C@H]21 3.5[16.7_µM] -2.0
CNC(=O)C[C@@H]1CC[C@H]2[C@H](COc3ccc(NC(=O)NCc4ccccc4)cc3C(=O)N2C)O1 -5.8[16.7_µM] 9.0
C[C@@H]1CN([C@@H](C)CO)C(=O)c2cc(NS(=O)(=O)c3cccs3)ccc2O[C@H]1CN(C)S(=O)(=O)c1cn(C)cn1 -11.7[16.7_µM] 10.2
